# Source: PubChem BioAssay (National Center for Advancing Translational Sciences (NCATS))
# VACV Venus inh: inhibitors of vaccinia virus (Venus reporter). Vaccinia virus Venus reporter expression, fluorescence. Potency, µM (top dose mostly 36.5 µM), without a hit: at the highest dose activity change, negative = inhibition, usual class: inhibitors. actives 0.46% (n = 330,000); active means well fitted inhibition curve with a large enough effect; inconclusive means small, poorly fitted or top-dose-only effect; inactive means no such curve, though single readings can be large or run the other way; tested in A549 cells; also: nearly all actives have a fitted effect of over 30% in size; inactives centre near -10
# Vaccinia mCherry: vaccinia inhibition (mCherry reporter). Vaccinia virus mCherry reporter infection, fluorescence; about a quarter of the inactives have no number. Potency, µM (doses to about 36.5 µM), inactives show at the top dose activity change, negative = inhibition, hits mostly inhibitors. actives 0.63% (n = 310,000); active = well fitted inhibition curve with a large enough effect; inconclusive = small, poorly fitted or top-dose-only effect; inactive = no such curve, though single readings can be large or run the other way; tested in A549 cells; also: nearly all actives have a fitted effect of over 35% in size; inactives centre near -10
# Active calls of the source: *; i = inactive; ? = inconclusive; · = not tested or not shown; & = joins results of further samples; [ ] = remark or other dose. % is scaled to controls: 0 for no effect and ±100 for the full control effect; potency is read from the fitted curve at half-maximal effect. An unsorted share of the library; any-hit rate near 0.82%.
SMILES,VACV Venus inh,Vaccinia mCherry
COc1ccc(CN(C)C(=O)c2ccc(NC(=O)CC3SC(N4CCCC4)=NC3=O)cc2)c(OC)c1 (stereo unspecified),-4%,-3%
Cn1cc(S(=O)(=O)N2CCOCC2)cc1C(=O)NCCc1ccccc1,2%,9%
CC(C)c1ccc(C(=O)Nc2ccc(N3CCOCC3)cc2)cc1,?,?
COc1cccc(CN(C)C(=O)Cc2c[nH]c3ccccc23)c1OC,-11%,-11%
COc1ccccc1Cc1nc2ccccc2n1S(=O)(=O)c1ccc(Cl)cc1,-11%,-3%
COc1ccc(S(=O)(=O)NCC(c2ccc(C)cc2)N2CCN(C)CC2)cc1OC (stereo unspecified),-1%,-16%
Cc1cccc(OCC(=O)N(Cc2sccc2C)C2CCS(=O)(=O)C2)c1 (stereo unspecified),-10%,-17%
c1ccc(C2=Nc3cccc4cccc(c34)N2)cc1,-4%,-14%
COc1cc(/C=C2/C(=N)N3OC(C)=CC3=NC2=O)ccc1OCCOc1ccc(C)cc1,-7%,-12%
Cc1ccc2nc(NC(=O)c3ccc(Cl)s3)sc2c1,?,5%
COc1ccc(C(CNC(=O)c2ccc(S(=O)(=O)Nc3ccc(F)cc3)cc2)N(C)C)cc1 (stereo unspecified),-7%,-12%
C=CCc1ccc(O)c(-c2ccc(O)c(CC=C)c2)c1,?,?
CN(C)c1ccc(/C=N/NC(=O)Cn2nnc3ccccc32)cc1,-4%,-12%
CCc1ccc(Oc2coc3cc(OC(=O)c4cc5ccccc5oc4=O)ccc3c2=O)cc1,-12%,i
O=c1c2c3c(sc2nc2n1CCCC2)CCCC3,-18%,-30%
CCOc1ccc(N2C(=O)NC(=O)/C(=C/c3cnc(SC)nc3)C2=O)cc1,-2%,-2%
CC(=O)NC(CCS(C)(=O)=O)C(=O)Nc1ccc(F)cc1Cl (stereo unspecified),-6%,-18%
CCc1ccc(CSc2nc(-c3ccccc3F)nc3c2Cc2c(CO)cnc(C)c2O3)cc1,-14%,-18%
CCC(C)Nc1c([N+](=O)[O-])cc(C)cc1[N+](=O)[O-] (stereo unspecified),-4%,-13%
CC1Cc2ccccc2N1C(=O)CSc1nnc(Cn2nnc3ccccc32)n1C (stereo unspecified),-9%,-17%
Cc1ccc(C(C)C)c(OCc2nnc(SCC(=O)Nc3ncc(C)s3)n2C)c1,-5%,2%
CC1=C(C(N)=O)C(c2ccccn2)n2nc(SCc3ccccc3)nc2N1 (stereo unspecified),-10%,-14%
OC(c1ccc2c(c1)CN(Cc1cccn1-c1ncccn1)CCO2)C1CCCCC1 (stereo unspecified),-15%,-15%
CCOC(=O)C1CCN(c2c(C(=O)c3ccccc3)cnc3ccc(CC)cc23)CC1,-8%,-10%
COc1ccc(N2CCN(C(=O)c3cc(=O)c4cc(C)ccc4o3)CC2)cc1,-17%,-22%
CN1CCN(C(=O)c2cc(C(C)(C)C)cc(C(C)(C)C)c2)CC1,-12%,-4%
COc1cccc(C(=O)N2CCC(c3nc4ccccc4s3)CC2)c1,-15%,-20%
O=C(CSc1nc2ccccc2s1)Nn1cnnc1,-13%,·
Cc1[nH]n(-c2ccccc2)c(=O)c1C(c1cccc([N+](=O)[O-])c1O)c1c(C)[nH]n(-c2ccccc2)c1=O,-23%,?
CCOc1ccccc1C(=O)Nc1nncs1,-14%,?
COc1cccc(CN2CCC2(C)C(=O)Nc2ccc3c(c2)OCO3)c1F (stereo unspecified),3%,-4%
Cc1cc(C)cc(Oc2nc3c(C)cccn3c(=O)c2/C=C(\C#N)C(=O)NC2CCS(=O)(=O)C2)c1 (stereo unspecified),-5%,-13%
CCSc1ncc(Cl)c(C(=O)N(Cc2ccc(C(C)(C)C)cc2)C2CCS(=O)(=O)C2)n1 (stereo unspecified),-17%,-17%
N/C(=N\OC(=O)CN1C(=O)c2ccccc2C1=O)c1ccc(Cl)cc1,-13%,-8%
O=C(NCc1ccccn1)c1cccc(NS(=O)(=O)c2cccc(Cl)c2)c1,-3%,-9%
CCCn1c(=O)[nH]c(=O)c2c1nc(-c1ccc(OC(F)F)cc1)n2CCN1CCOCC1,-11%,?
CCOC(=O)C1(Cc2cccc(Cl)c2)CCCN(C(=O)CCNC(C)=O)C1 (stereo unspecified),-8%,i
COC(=O)Oc1ccc(/C=N/NS(=O)(=O)c2ccccc2)cc1OC,-8%,i
COc1cccc(NC(=O)CN2CCCN(S(=O)(=O)c3ccc(Br)cc3)CC2)c1,-9%,-17%
CCCCN(CC)CCNC(=O)CN1C(=O)COc2ccc(S(=O)(=O)N3CCOCC3)cc21,-3%,3%
COc1cc(/C=C2\SC(=Nc3ccc(O)cc3)NC2=O)cc(OC)c1O,216%[activator],-5%
COc1ccc(-n2nnnc2C(c2ccccc2)N2CCC(n3c(=O)[nH]c4ccccc43)CC2)cc1 (stereo unspecified),-29%,-7%
COC(=O)c1c(NC(=O)COC(=O)[C@@H](NS(=O)(=O)c2cccc(Cl)c2)C(C)C)sc2c1CCC2,-11%,-17%
Cc1cccc(NC(=O)NCC2CCN(c3ccc(S(=O)(=O)N4CCOCC4)cc3)CC2)c1,-8%,-13%
CS(=O)(=O)Nc1ccc(C2=NN(C(=O)c3ccco3)C(c3ccccc3F)C2)cc1 (stereo unspecified),0%,-2%

# Record cards, from the list above.
# COc1cccc(NC(=O)CN2CCCN(S(=O)(=O)c3ccc(Br)cc3)CC2)c1 across the screens: VACV Venus inh: -9%; Vaccinia mCherry: -17%
# Cc1cccc(NC(=O)NCC2CCN(c3ccc(S(=O)(=O)N4CCOCC4)cc3)CC2)c1 across the screens: VACV Venus inh: -8%; Vaccinia mCherry: -13%

# Additional results.
SMILES,VACV Venus inh,Vaccinia mCherry
COc1ccc(OC)c(Cc2nnc(CCC(=O)N3CCN(C4CCCC4)CC3)o2)c1,-8%,i
CC1CC(C)CN(S(=O)(=O)c2cc(C(=O)O)c(Cl)s2)C1 (stereo unspecified),-8%,i
O=S(=O)(NCC1COc2ccccc2O1)c1ccc2ccccc2c1 (stereo unspecified),-15%,-18%
COc1ccc(C(=O)Nc2ccc(-n3nncc3C(C)(C)C)cc2)cc1,-7%,-5%
Fc1ccc(-c2ccc(NCCN3CCOCC3)nn2)cc1,-5%,-7%
CCCNC(=O)Cn1c(=O)/c(=C/c2ccc(-c3cccc([N+](=O)[O-])c3)o2)s/c1=C\C(=O)C(C)(C)C,-2%,i
Cc1cccc(OCC(O)CN2CCN(S(=O)(=O)c3ccc(C)cc3C)CC2)c1 (stereo unspecified),-9%,-24%
O=C(NC1CC2CCCC(C1)N2C(=O)Nc1ccccc1F)C1CC1 (stereo unspecified),4%,-12%
CCC1C(C#N)=C(SCC(N)=O)NC2=C1C(=O)CC(C)(C)C2 (stereo unspecified),-13%,-24%
COc1ccc(-c2nn(-c3ccccc3)cc2/C=C/C(=O)N2CCN(c3ccccn3)CC2)cc1,-11%,-13%
CCCCC(=O)N/N=C/c1ccc(-c2ccc([N+](=O)[O-])cc2)o1,-21%,-26%
C=C(C)C1(CCCC)C(=O)NC(=S)NC1=O,-8%,i
Cc1cccc(N2CC(C(=O)Nc3ccc(S(=O)(=O)N4CCOCC4)cc3)CC2=O)c1 (stereo unspecified),-17%,-9%
N#Cc1sc2nc(-c3ccccc3)cc(-c3ccco3)c2c1N,-2%,-7%
N#Cc1c(C(F)(F)F)cc(-c2cccs2)nc1SCC(=O)Nc1ccc(F)cc1,-3%,-4%

# 3 structures already listed, sorted by molecular weight, falling:
SMILES,VACV Venus inh,Vaccinia mCherry
COc1ccc(OC)c(Cc2nnc(CCC(=O)N3CCN(C4CCCC4)CC3)o2)c1,-8%,i
CCCCC(=O)N/N=C/c1ccc(-c2ccc([N+](=O)[O-])cc2)o1,-21%,-26%
Fc1ccc(-c2ccc(NCCN3CCOCC3)nn2)cc1,-5%,-7%

# Additional results follow.
SMILES,VACV Venus inh,Vaccinia mCherry
CC1(C)CC(=O)c2cc(C(=O)N3CCCC(C)(C)C3)c(=O)n(-c3ccccc3)c2C1,-12%,·
O=C(CSc1ncccn1)Nc1ccc(Cl)c(S(=O)(=O)N2CCOCC2)c1,10%,1%
Cn1c(-c2ccccc2)c(Sc2ccccc2)c2cc(-c3ccc4cc[nH]c4c3)ccc21,8%,24%
O=C(Nc1cccc([N+](=O)[O-])c1)c1cccc(C(=O)Nc2cccc([N+](=O)[O-])c2)c1,?,-8%
Cc1c(C(=O)NCc2ccc([N+](=O)[O-])cc2)sc(=O)n1Cc1ccc2c(c1)OCO2,-10%,-14%
N/C(CC(=O)Nc1ccc(F)cc1)=N\O,0%,-13%
COc1ccc(NC(=O)CN2C(=O)c3cccc4cccc2c34)cc1OC,-26%,-25%
CCOc1ccc(CCNC(=O)CCc2c(C)nc3ncnn3c2C)cc1OCC,-3%,-7%
O=C(/C=C/c1ccco1)c1cccc([N+](=O)[O-])c1,-8%,i
Fc1ccc(/C=N/NC(=S)NCCc2ccccc2)cc1F,-5%,-7%
CCCCNc1c(-c2ccc(OC)c(SC3CCCCC3)c2)nc2ccc(Cl)cn12,-17%,i
CC(=O)Nc1nc(-c2ccc3c(c2)CCN3S(C)(=O)=O)cs1,-27%,-28%
CCC1(c2ccccc2)NC(=O)N(CC(=O)NCC2COc3ccccc3O2)C1=O (stereo unspecified),?,-17%
O=C(NCc1ccccc1F)c1cc2ccccn2n1,-9%,1%
CCC(c1nnc(SCC(=O)Nc2ccc(C(C)=O)cc2)n1C1CCCCC1)N(C)C (stereo unspecified),-5%,-13%
CN1CCN(CC(=O)N2c3ccccc3C(C)(c3ccccc3)CC2(C)C)CC1 (stereo unspecified),-16%,·
CC(C)c1ccc(C2C(C#N)=C(N)Oc3c2oc(CO)cc3=O)cc1 (stereo unspecified),-9%,2%
O=C(NC1CCCCC1)n1c(=O)oc2ccc(Cl)cc21,-18%,i
O=C(Nc1nnc(SCC(=O)N2CCCC2)s1)C1CC(=O)N(c2ccc(F)cc2)C1 (stereo unspecified),-10%,-11%
Cc1cccc(N2CCN(C(=O)CNC(=O)c3cccc([N+](=O)[O-])c3)CC2)c1C,-5%,-9%
O=C(O)CN1C(=O)S/C(=C\c2ccc3c(c2)OCO3)C1=O,-7%,0%
CCOc1ccccc1NC(=O)N1CCC(NC(=O)c2cccc(C)c2)CC1,-7%,-9%
O=C1c2ccccc2C(=O)N1c1cccc(O)c1,-21%,-9%
COc1ccc(S(=O)(=O)N2CCOCC2)cc1NC(=O)CN(C)Cc1c(F)cccc1Cl,-21%,?
O=C(CSc1cccc[n+]1[O-])c1cc2ccccc2o1,0%,·
CCCc1ccc(OCC(O)CN2CCCC2)cc1 (stereo unspecified),-9%,i
O=C(NCc1ccccc1)C(c1ccc(F)cc1)N1CCN(C(=O)C2CCCO2)CC1 (stereo unspecified),-12%,-6%
Cc1cccc(OCC(=O)N/N=C\C=C\c2ccc3c(c2)OCO3)c1C,5%,-13%
O=C(Cn1cnc2c(nnn2Cc2ccc(Cl)cc2)c1=O)NCC1CCCO1 (stereo unspecified),-10%,-21%
CCOc1cccc(C2C=C(c3ccc4c(c3)OCO4)NC(c3cccc(Br)c3)N2)c1O (stereo unspecified),-16%,21%
COc1cc2oc(=O)ccc2cc1-c1c(OC)ccc2ccc(=O)oc12,-23%,14%
COc1ccc(Cn2cc(C(=O)c3ccc(Cl)cc3)c(=O)c3cc4c(cc32)OCO4)cc1,?,?
O=C(C1CCN(S(=O)(=O)c2ccccc2)CC1)N1CCCCCC1,-18%,i
CCCCN(CC)C(=O)Cn1c(=O)sc2ccccc21,-18%,i
Cc1ccc(S(C)(=O)=NC(=O)NC(=O)c2c(Cl)cccc2Cl)cc1 (stereo unspecified),-19%,-12%
COc1ccc(C(CC(=O)NCc2ccccc2Cl)N2Cc3ccccc3C2=O)cc1OC (stereo unspecified),6%,-4%
CCOC(=O)C1=C(N)Oc2ccc3ccccc3c2C1c1cccnc1 (stereo unspecified),?,?
CCC1=C2CC[C@H]3C(=O)N(CC)C(=O)[C@H]3[C@H]2[C@@]2(Cc3ccccc3)C(=NCCOC)OC(=O)N2C1=O,-4%,i
Cc1ccccc1C(=O)O[C@H]1[C@H](Cc2ccccc2)NS(=O)(=O)[C@H]2CC3C=C[C@]12O3,-1%&-1%,-6%&-9%
NNC(=O)c1sccc1OCc1ccc(Cl)cc1,2%,i
Cc1oc(/C=N/NC(=O)CC2(C)OCCO2)cc1Br,0%,?
COCCNC(=O)CN1C(=O)COc2ccc(S(=O)(=O)N3CCCCCC3)cc21,4%,-1%
O=C(N/N=C/C1CC=CCC1)c1ccc(Cl)cc1O (stereo unspecified),-7%,-5%
O=C(OCc1cn([C@H]2C[C@H](c3ccc(Cl)cc3)N(C(=O)c3cccs3)C[C@@H]2O)nn1)c1ccccc1,1%,i
COc1ccccc1CNC(=O)Cc1c(C)c2cc3c(C)coc3c(C)c2oc1=O,?,?

# Reprinted at random: 6 records from the list.
SMILES,VACV Venus inh,Vaccinia mCherry
COc1cc2oc(=O)ccc2cc1-c1c(OC)ccc2ccc(=O)oc12,-23%,14%
Cc1ccccc1C(=O)O[C@H]1[C@H](Cc2ccccc2)NS(=O)(=O)[C@H]2CC3C=C[C@]12O3,-1%&-1%,-6%&-9%
CCOC(=O)C1=C(N)Oc2ccc3ccccc3c2C1c1cccnc1 (stereo unspecified),?,?
COCCNC(=O)CN1C(=O)COc2ccc(S(=O)(=O)N3CCCCCC3)cc21,4%,-1%
Cc1oc(/C=N/NC(=O)CC2(C)OCCO2)cc1Br,0%,?
COc1ccc(C(CC(=O)NCc2ccccc2Cl)N2Cc3ccccc3C2=O)cc1OC (stereo unspecified),6%,-4%
